Biofilm kill mix: clotrimazole potentiators killing C. albicans biofilm, primary screen, 4-compound mixtures; C. albicans biofilm persisters + clotrimazole, fluorescence viability; primary screen in compound mixtures of four per well; inhibition, % at 7.6 µM; 0.02% of 120,000 active; AID 1242, 2008;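 active = inhibition above 30.3% in the primary screen of four-compound pools, then above 30% when the compound was retested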;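 note: compounds exposed to preformed 24 h biofilms for 48 h; the number belongs to the whole pool; some results filed as inactive read as strong as hits; inactives centre near 12; 0% = biofilm with clotrimazole alone and 100% = kill control; retested singly at about 60 µM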
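Incubation: 24 h biofilm formation, then 48 h compound exposure, 37 °C | Material: C. albicans biofilms | Buffer or medium: RPMI/MOPS medium, pH 7.0 | Measured by: 2-h Alamar Blue fluorescence, 535/590 nm excitation/emission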
Active calls of the source: *. This is a subset, so the mix of outcomes need not match the whole.

SMILES | Biofilm kill mix
OCCN=C1CCCc2c1[nH]c1ccc(Cl)cc21 | 14.7
CNc1nc(N/N=C/c2cc3c(cc2[N+](=O)[O-])OCO3)nc(Nc2ccccc2)n1 | 6.9
COc1ccc(NC(=O)Nc2ccc3c(c2)CCC3)c(OC)c1 | -8.5
COc1cc(-c2nnc(NC(=O)c3ccc(S(=O)(=O)N4CCOCC4)cc3)o2)cc(OC)c1OC | 13.1
CCCCCCCCSc1nnc2[nH]c(=O)cc(N)n12 | 11.0
CCCn1c(O)c(C=Nc2ccccc2)sc1=S | 14.2
COc1cccc(CNc2nc3ccc(C)cc3n3cnnc23)c1 | 19.2
Cn1cc(C=O)c2ccccc21 | 3.3
Cc1ccccc1S(=O)(=O)Nc1cccnc1 | 4.5
Cc1[nH]c2ccccc2c1C(=O)C(C)OC(=O)c1ccc([N+](=O)[O-])o1 (centres undefined) | 12.5
COc1ccc(Cl)cc1S(=O)(=O)N1CCCC1=O | 6.2
CC1(C)CC2(CCCN(CC(O)(c3ccccc3)c3ccccc3)C2)CCO1 (centres undefined) | 18.3
N#Cc1cc(C(=O)c2ccccc2OCC(=O)Nc2ccccc2Cl)cn(C2CCCCC2)c1=O | 10.6
Fc1ccc(-n2c(CN3CCCCC3)n[nH]c2=S)cc1 | 14.5
O=C(c1cccnc1)N1CCN(S(=O)(=O)c2ccc(F)cc2)CC1 | 17.1
Clc1ccc(-c2nc(-c3cc4cc(Cl)ccc4o3)cs2)cc1 | 12.6
O=C(O)C1=C[C@@H](C2CC2)C[C@@H](OCc2ccc(CO)cc2)O1 | 15.6
COc1ccc(CCNC(=O)CCS(=O)(=O)c2ccc(Br)cc2)cc1OC | 1.0
CCN(C(=O)CN(C)Cc1cccc(Cl)c1Cl)c1c(N)n(Cc2ccccc2)c(=O)[nH]c1=O | 23.7
NNC(=O)CSc1nc(-c2ccccc2)nc2c1CCCC2 | 6.4
S=c1[nH]nc(-c2cc(-c3ccccc3)n[nH]2)n1/N=C/c1cccc(Cl)c1 | 19.3
COC(=O)[C@@]1(Cc2ccc(OC)cc2)[C@@H]2C(=CC(=O)[C@H]2CC(=O)C(=O)N(C)C)CN1C(=O)c1ccccc1 | 10.2
CCCCNC(=O)NCCN1CCOCC1 | 19.1
COCCn1c(SCc2cc(=O)n3cc(C)ccc3n2)nc2ccccc2c1=O | 10.5
COCCCn1c(=O)/c(=C\c2ccccc2OC(F)F)s/c1=C(/C#N)C(=O)NCCOC | 11.2
CC1CCCCN1Cc1nc2c(c(=O)n(C)c(=O)n2C)n1Cc1c(F)cccc1Cl (centres undefined) | 17.5
CC(=O)OCC1=C(C(=O)O)N2C(=O)C(NC(=O)c3ccc(COc4c(C)cccc4Cl)o3)C2SC1 (centres undefined) | 10.1
Cc1ccc(OCC(O)CN2C(=O)NC(C)(C)C2=O)cc1 (centres undefined) | 9.9
CC(=O)c1ccn(S(=O)(=O)c2ccc(Cl)cc2)c1 | 11.9
Cc1cccc(N(Cc2cc(=O)[nH]c3ccccc23)C(=O)C(C)C)c1 | 15.7
O=C(/C=C\c1ccco1)Nc1nc(-c2ccc3ccccc3c2)cs1 | 5.0
CCCCCOc1ccc(/C=C/C(=O)NCCc2nc3ccccc3[nH]2)cc1OC | 14.2
O=C(CSc1cccc[n+]1[O-])c1ccccc1Br | 8.5
COc1ccc(CNC(=O)C/C(C)=N/NC(=O)c2cnccn2)cc1 | 33.5
NNC(=O)c1cc(Cl)ccc1Cl | 7.6
O=C(COC(=O)CCC(=O)c1ccc(Cl)cc1)NCCc1ccccc1 | 12.9
c1ccc(Cn2c(NCc3ccccn3)nc3ccccc32)cc1 | 11.3
O=C(COC(=O)c1ccc2c(c1Cl)C(=O)c1ccccc1C2=O)NC1CC1 | 10.2
CCOC(=O)c1c(C)[nH]c(C)c1C(=O)CSc1nc2ccccc2n1CCC#N | 19.3
COc1ccc(NC(=O)C2CCN(S(=O)(=O)c3ccc(Br)s3)CC2)cc1OC | 11.9
CC(C)[C@H]1CN=C2N(CCNC(=O)CCC3CCCCC3)[C@H](Cc3ccc(O)cc3)CN21 | 3.9
O=C(Nc1cccc(C(F)(F)F)c1)c1ccc(N2CCNCC2)c([N+](=O)[O-])c1 | 12.2
Cc1ccccc1OCC(=O)Nc1ccc2oc(=O)ccc2c1 | 14.9
O=C(c1cc2ccccc2c(=O)o1)N1CCCCCC1 | 6.7
O=c1c2cc(NC(=S)NC3CCCCC3)ccc2nc2n1CCCCC2 | 17.9
O=C(NC(=S)Nc1ccc(S(=O)(=O)Nc2ccccc2)cc1)C1CC1 | 18.5
CC(NC(=O)Cn1ncc(Cl)c(Cl)c1=O)C12CC3CC(CC(C3)C1)C2 (centres undefined) | 12.2
Oc1ccc(C2=NNC(=NCc3ccc4c(c3)OCO4)SC2)c(O)c1 | 23.2
Cc1cccc(N2CCN(C(=S)c3ccccc3)CC2)c1 | 11.9
CCc1cc(C(=O)Nc2cc(S(=O)(=O)N(C)C)ccc2C)sc1C | 7.7
Cc1ccc(C2=NNC3(CCOC(C)(C)C3)S2)cc1 (centres undefined) | 6.8
Cc1cc(N2CCCC2)c(F)cc1/C=C\[N+](=O)[O-] | -12.7
CCOCCCNC(=S)N1CCN(CC)CC1 | 10.9
O=C(Oc1c(-c2ccccc2)c(=O)n2c3c(cccc13)CC2)c1ccco1 | 21.3
C=COCCNC(=S)Nc1cccc(Cl)c1 | 11.4
COc1cc(-c2nc3ccc(C)cn3c2Nc2ccc3c(c2)OCCO3)ccc1O | 14.1
Cc1ncc([N+](=O)[O-])n1CCOC(=O)NC(NCc1cccnc1)C(Cl)(Cl)Cl (centres undefined) | 0.9
CSc1nnc(CNS(=O)(=O)c2ccc(Cl)cc2)n1C | 17.7
Fc1ccc(C2CCCCN2Cc2nc(CC3CC3)no2)cc1 (centres undefined) | 0.3
NS(=O)(=O)c1ccc(N/N=C/c2ccc3c(c2)OCO3)c([N+](=O)[O-])c1 | 18.1

Some of these compounds in order of molar mass, smallest number first.
SMILES | Biofilm kill mix
O=C(c1cc2ccccc2c(=O)o1)N1CCCCCC1 | 6.7
Cc1ccc(C2=NNC3(CCOC(C)(C)C3)S2)cc1 (centres undefined) | 6.8
O=C(NC(=S)Nc1ccc(S(=O)(=O)Nc2ccccc2)cc1)C1CC1 | 18.5

Other entries
SMILES | Biofilm kill mix
Cc1ccc(C(=O)Nc2ccc(CN3CCS(=O)(=O)CC3)cc2)cc1C | 5.7
CCOC(=O)c1nc(SC)n(C)c1C(=O)OCC | 14.9
CCCC(=O)N=c1sc2c(OC)ccc(OC)c2n1C | 11.4
COc1ccc2ccccc2c1CNCCCN1CCOCC1 | 21.8
Cc1ccccc1C(=NCCCN(C)C)c1ccccc1C | 12.2
Nc1nnc(Cc2cccc(Br)c2)s1 | 11.3
Cc1ccc(-c2csc(=Nc3cccnc3)n2CCCN2CCCC2=O)cc1C | 8.6
CCCc1cnc(N2CCN(C(=S)NC)CC2)nc1 | 10.3
Cc1ccc(NC(=S)Nc2cc(C)on2)cc1 | 0.6
O=C(CO/N=C/c1ccc(OC(F)F)cc1)NC1CCCCCC1 | 17.1
CC1CCCCN1C(=O)c1cc(Cl)ccc1[N+](=O)[O-] (centres undefined) | 6.4
Cn1c(NNC(=O)/C=C/c2ccc3c(c2)OCO3)cc(=O)n(C)c1=O | 19.5
COc1cccc(CC(NC(C)=O)C(=O)NC2CCN(c3c(Cc4ccccc4)c(C)nc4ncnn34)CC2)c1 (centres undefined) | 15.3
O=[N+]([O-])c1cc(/C=N/N2CCCCC2)ccc1Cl | 17.8
O=C(O)c1cccc(NN=C2c3ccccc3-c3ccccc32)c1 | 14.8
Cc1noc(/C=C/c2ccco2)c1S(=O)(=O)N1CCC(C(=O)Nc2ccc(Cl)cn2)CC1 | 12.2
Cc1cccc(NC(=O)CSc2nc3nc4c(cc3c(=O)n2-c2ccccc2)CCCC4)c1 | 4.4
CCc1ccc(/C=N/NC(=O)c2ccccn2)cc1 | 22.1
COc1ccc(Cc2nnc(NC(=O)c3cccs3)s2)cc1OC | 13.3
CS(=O)(=O)c1[nH]nc(-c2ccccc2)c1C#N | 14.4

A stretch of the results above, as a working copy:
SMILES | Biofilm kill mix
Cc1ccccc1C(=NCCCN(C)C)c1ccccc1C | 12.2
Nc1nnc(Cc2cccc(Br)c2)s1 | 11.3
Cc1ccc(-c2csc(=Nc3cccnc3)n2CCCN2CCCC2=O)cc1C | 8.6
CCCc1cnc(N2CCN(C(=S)NC)CC2)nc1 | 10.3
Cc1ccc(NC(=S)Nc2cc(C)on2)cc1 | 0.6
O=C(CO/N=C/c1ccc(OC(F)F)cc1)NC1CCCCCC1 | 17.1
CC1CCCCN1C(=O)c1cc(Cl)ccc1[N+](=O)[O-] (centres undefined) | 6.4

(cont.)
SMILES | Biofilm kill mix
COc1ccc(/C=C(/NC(=O)c2ccccc2Cl)C(=O)O)cc1 | 6.5
O=C(Nc1ccccc1)C1=C[C@@H](c2coc3ccccc3c2=O)C[C@@H](OCCCCO)O1 | 15.3
CN(C)S(=O)(=O)Oc1ccccc1C(=O)Nc1ccc(F)cc1 | 13.9
O=C1NCC(COc2cccc3ccccc23)O1 (centres undefined) | 16.4
CC1=C(C(=O)OC(C)(C)C)C(c2cccs2)NC(=O)N1 (centres undefined) | 9.2
Cc1nn2c(NCCN(C)C)c3c(nc2c1-c1ccccc1)CCC3 | 21.7
CCn1c(C)nc2cc(C(=O)N/N=C/c3ccc(O)c(O)c3O)ccc21 | 18.6
CC(C)CNC(=O)COc1ncnc2sccc12 | 2.9
CC(=O)Nc1ccc(S(=O)(=O)Nc2ccc(C(=O)NCC(=O)O)cc2)cc1 | 17.2
O=C1O/C(=C/C(=O)N2CCOCC2)c2ccccc21 | 11.5
Cc1cc(Cl)ccc1NC(=O)CCC(=O)O | 6.6
O=C(CCC(=O)NCCCc1ccccc1)NCCCc1ccccc1 | 16.7
CCCC(=O)Nc1nnc(CCOC)s1 | 16.5
CCCN1CCN(S(=O)(=O)c2ccc3c(c2)OCCO3)CC1 | 12.7
CCCCOC(=O)Cn1c(-c2ccccc2)nc2ccccc2c1=O | -10.3
C/C(=N/Nc1ccc(Cl)cc1)c1cnnc(-c2ccccc2)n1 | 7.2
Cc1cc(-c2ccccc2)nc(SC(C(=O)O)c2ccccc2)n1 (centres undefined) | 13.3
CC(C)NC(=O)NCCCCCCS(C)=O (centres undefined) | 10.0
CCOC(=O)c1cnc(SC)nc1Nc1cccc2ccccc12 | 15.5
COc1cccc(CNC(=O)CSc2ccc(-c3cccs3)nn2)c1 | 14.4

Quoted at random: four entries already listed.
SMILES | Biofilm kill mix
CCCC(=O)Nc1nnc(CCOC)s1 | 16.5
CCCN1CCN(S(=O)(=O)c2ccc3c(c2)OCCO3)CC1 | 12.7
CC1=C(C(=O)OC(C)(C)C)C(c2cccs2)NC(=O)N1 (centres undefined) | 9.2
CCCCOC(=O)Cn1c(-c2ccccc2)nc2ccccc2c1=O | -10.3

Following part:
SMILES | Biofilm kill mix
O=[N+]([O-])c1ccccc1/C=C/C=N/n1c(-c2ccccc2)n[nH]c1=S | 10.4
O=C(c1ccccc1F)N(Cc1cccnc1)Cc1cc2cc3c(cc2[nH]c1=O)OCCO3 | 5.0
Cc1ccc(Nc2cc(C)nc3c(C)ccc([N+](=O)[O-])c23)cc1 | 9.4
CSC1=NCCN1S(=O)(=O)c1ccc2ccccc2c1 | 8.1
Cc1c(NC(=O)COC(=O)C23CC4CC(CC(Br)(C4)C2)C3)c(=O)n(-c2ccccc2)n1C | 14.6
COc1ccc(CCNC(=O)c2c(N)no[n+]2[O-])cc1OC | 20.3
Cc1[nH][nH]c(=O)c1N=Nc1ccc(Cl)cc1 | -0.2
O=C(NCc1ccco1)C(=O)NCC1OCCCN1S(=O)(=O)c1ccc(Cl)cc1 (centres undefined) | 1.5
Cc1cc(N)ccc1N=Nc1c(C)n(C)n(-c2ccccc2)c1=O | 10.2
COc1ccc(CC(=O)O/N=C(\N)c2ccc(C)cc2)cc1 | 14.0
CC(=O)c1c(-c2ccccc2)c2cc(Cl)ccc2[nH]c1=O | 44.8
CC1=C(C(=O)Nc2ccc(F)c(F)c2)C(c2cccs2)NC(=S)N1 (centres undefined) | 4.7
CCOc1ccccc1/C=N/OCC(=O)NCc1ccc(F)cc1 | 5.2
CC(C)CC(COCc1ccc(Cl)cc1)N1CCN(C(=O)c2ccc(C(F)(F)F)cc2)CCC1=O (centres undefined) | 12.8
COCCN1Cc2cccc(C(=O)Nc3ccc(S(=O)(=O)N4CCCCCC4)cc3)c2C1=O | 4.5
CC/C(=N/NC(=O)CNc1ccc(Cl)cc1C)c1ccccc1 | 4.3
Cc1cc(NS(=O)(=O)c2ccc(NC(=O)c3cnc4sccn4c3=O)cc2)nc(C)n1 | 11.8
Cc1cc(C)c(NC(=O)COC(=O)c2cccc3c2C(=O)c2ccccc2C3=O)c(C)c1 | 18.6
C/C(=N\NC(=O)CNC(=O)C(c1ccccc1)c1ccccc1)c1ccc(C(C)(C)C)cc1 | 23.1
Cc1cc(N2CCN(C)CC2)nc2ccc(NC(=S)N3CCN(c4ccccn4)CC3)cc12 | 15.8
CC(=O)N1N=C(c2cccc([N+](=O)[O-])c2)OC1c1cccc(Br)c1 (centres undefined) | 2.5
CCCc1nc2ccccc2c(C(=O)OCC(=O)N2CCc3ccccc32)c1CC | 23.4
COc1cnc(-c2ccccc2)nc1Sc1ccccc1 | 5.7
COc1ccccc1NC(=O)CN1CCC(c2nc3ccccc3[nH]2)CC1 | 18.7
COCCC(=O)N1CCc2c([nH]c3ccccc23)C1C(C)(C)C (centres undefined) | 23.9
O=c1[nH]c(=O)n(-c2ccccc2)c2c1C(C(F)(F)F)(C(F)(F)F)N=C(CCC1CCCCC1)N2 | 5.1
COc1ccccc1NC(=S)N(Cc1ccc(C)cc1)Cc1cccnc1 | 18.9
Cc1cccc(Nc2ncnc3c2cnn3Cc2ccccc2)c1 | 7.0
N=c1n(CC(=O)c2cccs2)c2ccccc2n1Cc1ccccc1 | 7.7
N#CCC(=O)Nc1nc(-c2ccc3c(c2)OCCO3)cs1 | 13.4
